RN4220 kill = S. aureus RN4220 growth inhibition | 330,000 tested, 0.33% active | OD600, 16 h | inhibition, % (test concentration not listed);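 active = z-score of -3 or lower and OD600 up to 0.18 on both plates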;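 note: plate controls were untreated cells for no effect and reference antibiotic for full effect; stock transfer was 100 nL into about 80 µL; one replicate is shown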
Sa ugtP lethal = growth inhibition of S. aureus ugtP deletion strain | 330,000 tested, 0.54% active | S. aureus RN4220 ugtP deletion, OD600 growth, 16 h; some inactives read as strong as hits | growth inhibition, % (no concentration beside the values);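 active = z-score under -3 and OD600 up to 0.15 on both plates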;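 note: plate controls were untreated wells for no effect and antibiotic for full effect; wells of about 80 µL received 100 nL stock; the first replicate is given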
Autofluor counter = compound fluorescence in toxin protease inhibitor counterscreen | fluorescence intensity (test concentration not listed) | compound autofluorescence counterscreen, microsphere flow cytometry; active compounds read high | 360,000 tested, 3.1% active;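 active = at least 3 SD above the mean of all compounds, about 16000 in these data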;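 note: 100 nL of 1 mM stock went into each well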
Mtb hypoxia rep = Mtb hypoxia fluorescent reporter inhibition; M. tuberculosis hypoxia-regulated fluorescent reporter, fluorescence; fluorescence inhibition, % (concentration not given with the values); 300,000 tested, 0.1% active; AID 1159583;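 active = 35 to 45% if threefold the growth effect, above 45% if 1.5-fold the growth effect; inactive = the rest, general growth blockers included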;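 note: wells of about 50 µL received 100 nL stock; 0% = vehicle wells and 100% = reference inhibitor wells; whole bacteria with a GFP reporter of the hypoxia response; strong numbers were not always called active; many hits fall short of the cut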
PrP UTR inh = suppresses PrP 5' UTR mRNA reporter expression; AID 488862; cell-based PrP 5' UTR mRNA reporter, plate reader; 340,000 tested, 0.35% active; inhibition, % (concentration not given with the values);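 active = every replicate at 50% or more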;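 note: 0 = median of the neutral control wells; tested in H4 reporter cells; numbers are from one replicate; inactives centre near -14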
BJeLR lethal = BJeLR cell viability loss; 300,000 tested, 0.17% active; AID 1554; inhibition, % (no concentration beside the values); BJeLR (HRASV12) viability, CellTiter-Glo ATP luminescence, 48 h; reference of the scale not given here;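 active = replicate mean above 50%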;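 note: 50 nL library stock added to about 25 µL; numbers are from one replicate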
Mtb hypoxia rep growth = further read-out of Mtb hypoxia rep, marked with its call; growth inhibition, %; measured here: M. tuberculosis growth (absorbance);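 0% = vehicle and 100% = reference antibiotic; read after six days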
* marks the source's active call; other numbers are inactive results; . = not tested or not shown.

SMILES | RN4220 kill | Sa ugtP lethal | Autofluor counter | Mtb hypoxia rep | Mtb hypoxia rep growth | PrP UTR inh | BJeLR lethal
CCOc1ccc(Br)cc1S(=O)(=O)Nc1ccc(C(=O)Nc2ccc(C)cc2)cc1 | -2.1 | 17 | 2763 | 7 | 9 | -11 | -2
COCCN(Cc1nc(-c2ccc(-c3ccccc3)cc2)oc1C)C(C)C | 1.4 | 12 | 3494 | 7 | 11 | -45 | 4
COc1ccc(S(=O)(=O)N(C)c2ccc(OC(=O)C(C)Oc3ccc(F)cc3)cc2)cc1 (stereo not given) | 5.1 | -1 | 7448 | -9 | 0 | -17 | 5
O=C(CSc1nc2ccccc2[nH]1)NCc1ccc2c(c1)OCO2 | 6.5 | 3 | 2502 | 7 | 6 | 6 | -4
O=[N+]([O-])c1cc(Cl)ccc1Sc1ccccn1 | -1.1 | 2 | . | 7 | 13 | -18 | 0
O=C(Oc1ccc2c(c1)OCC2=O)c1ccccc1 | 1.5 | 6 | 8860 | 11 | 8 | -36 | 1
CCOc1ccccc1/C=C/c1onc(C)c1S(=O)(=O)N1CCC(C(=O)NC)CC1 | 3.6 | 1 | 4484 | . | . | -10 | -10
CCc1nnc(NC(=O)Cc2cccs2)s1 | -1.7 | 5 | 3943 | -2 | 3 | -15 | -9
Cc1occc1-c1nnc(SCC(=O)NCc2cccs2)n1CC1CCCO1 (stereo not given) | 4.9 | -1 | 4065 | -2 | 11 | -17 | .
O=C(CSc1nnc(-c2ccncc2)n1Cc1ccco1)Nc1ccccc1F | 1.3 | 3 | 3871 | 5 | -3 | -14 | 8
COc1ccc(-c2nn(-c3ccccc3)cc2C=NNC(=O)c2cccc(S(=O)(=O)Nc3ccccc3Cl)c2)cc1 | 2.9 | -2 | . | -1 | 5 | . | .
NS(=O)(=O)c1ccc(CCNC(=O)c2ccccc2[N+](=O)[O-])cc1 | 4.6 | 1 | 2081 | -1 | 11 | -20 | 1
O=C(COC(=O)c1ccc([N+](=O)[O-])cc1)Nc1ccccc1C(=O)NC1CC1 | 10 | -1 | 3883 | 7 | 2 | -20 | .
Cc1ccn2c(=O)nc(SCc3cccc(C(F)(F)F)c3)nc2c1 | 6.4 | 12 | 5654 | 11 | 17 | -47 | 11
OC1(CN2CCOCC2)C2CN3CCN(C2)CC1(c1ccccc1)C3 (stereo not given) | 0.7 | 1 | 2215 | . | . | -13 | -1
CCOc1cccc(NC(=O)C2CCCN(S(=O)(=O)c3ccc(-n4cnnn4)cc3)C2)c1 (stereo not given) | 7.6 | 3 | 9201 | 9 | 5 | -21 | 1
O=C(NCc1cccnc1)c1c(O)c2cccc3c2n(c1=O)CCC3 | 6.0 | 8 | 3292 | 7 | -8 | 1 | 7
Cc1ccc2c(c1)N(CC(=O)N1CCOCC1)C(=O)C(C)O2 (stereo not given) | 1.5 | 7 | 3094 | -3 | -7 | -8 | 3
COc1ccccc1C(CNC(=O)c1cccc(NS(=O)(=O)c2ccc(C)c(F)c2)c1)N(C)C (stereo not given) | -0.2 | 8 | 5070 | 0 | -13 | -10 | 8
CCOc1ccc(NC(=O)CCn2c(=S)oc3ccccc32)cc1 | -2.0 | 2 | 3683 | 10 | 7 | -14 | 4
CCCn1nc(C(=O)Nc2ccc(-n3cnnn3)cc2)c2ccccc2c1=O | -0.1 | -2 | 4580 | 4 | -6 | -11 | .
C[C@H](NC(=O)OC(C)(C)C)C(=O)NCC1CCC(C(=O)O)CC1 (stereo not given in full) | 2.2 | 0 | 3924 | 4 | -2 | -13 | 1
COc1cc(C=O)ccc1OCCCCOc1ccccc1[N+](=O)[O-] | 6.9 | 7 | 2157 | 7 | 2 | -13 | 9
Cc1ccccc1N(CC(=O)NCc1ccco1)C(=O)CNS(=O)(=O)c1ccc(F)cc1 | 2.7 | 6 | 3544 | 6 | 1 | -8 | 8
CC1(C)C(=O)NCCN1C(=O)CC1C(=O)NCCN1Cc1cccc(C(F)(F)F)c1 (stereo not given) | . | . | 4618 | . | . | 1 | 4
CN(C)c1nc(Oc2ccc(=O)[nH]n2)nc(N2CCOCC2)n1 | -9.7 | 1 | 2410 | 8 | 3 | -21 | -3
CCC(C)NC(=O)c1c(N)n(/N=C/c2ccccn2)c2nc3ccccc3nc12 (stereo not given) | . | . | 10950 | . | . | -9 | 6
O=C(COC(=O)CCc1c[nH]c2ccccc12)NCc1ccc2c(c1)OCO2 | 5.0 | 4 | 4715 | 15 | 7 | -17 | -4
COc1cccc(C(=O)N2CCN(S(=O)(=O)Cc3ccccc3)CC2)c1 | -3.9 | -6 | 6063 | -2 | 8 | -19 | -6
Cc1c(Cl)ccc2c1NC(=O)[C@]21N[C@@H](Cc2ccccc2)[C@H]2C(=O)N(c3ccc(F)cc3)C(=O)[C@H]21 | -3.8 | -31 | 23930* | -2 | 5 | 0 | 7

Just Mtb hypoxia rep and Sa ugtP lethal (two entries from above):
molecule,Mtb hypoxia rep,Sa ugtP lethal
COc1ccc(S(=O)(=O)N(C)c2ccc(OC(=O)C(C)Oc3ccc(F)cc3)cc2)cc1 (stereo not given),-9,-1
O=C(CSc1nc2ccccc2[nH]1)NCc1ccc2c(c1)OCO2,7,3

The list goes on:
SMILES | RN4220 kill | Sa ugtP lethal | Autofluor counter | Mtb hypoxia rep | Mtb hypoxia rep growth | PrP UTR inh | BJeLR lethal
S=C1Cc2ccccc2C(c2ccc(Cl)cc2)N1 (stereo not given) | -5.6 | 1 | 3795 | 8 | -1 | -7 | -8
CC(NC(=O)c1ccccc1Cl)C(=O)Nc1ccc2c(c1)OCO2 (stereo not given) | 1.9 | -4 | 5882 | -1 | 3 | -30 | .
O=C(Cn1cnc2c(cnn2-c2ccccc2)c1=O)NCc1ccccc1 | 5.1 | 5 | 4658 | . | . | -44 | 6
CCOC(=O)c1[nH]c2cc3c(cc2c1NC(=O)CN1CCCC1)OCO3 | 4.2 | 1 | 6237 | -1 | -7 | -14 | 4
CCOC(=O)/C=c1\s/c(=C(\C#N)C(N)=O)n(-c2ccccc2)c1=O | . | . | 4041 | . | . | -11 | -7
CCOC(=O)c1cc(CC)sc1/N=C/c1c(O)ccc2ccccc12 | . | . | 9328 | . | . | 4 | -1
COc1ccccc1NC(=O)CSc1nc2ccccc2nc1N1CC(C)OC(C)C1 (stereo not given) | -6.3 | 13 | 5824 | -2 | -3 | -21 | -2
CC[C@@H](C)CN1C(=O)N[C@@H](c2ccccc2)C(C(C)=O)=C1C | . | . | 3156 | . | . | -8 | 2
CC(=O)Nc1ccccc1NC(=O)c1ccc(C)cc1C | 3.3 | 9 | 3610 | 12 | 4 | -19 | -15
COC(=O)c1ccc(N2CCN(C(=O)c3ccccc3)CC2)c(NC(C)=O)c1 | 8.6 | 11 | 2555 | 14 | 6 | -26 | 3
O=C(Cc1ccc(Cl)c(Cl)c1)Nc1ccccc1N1CCOCC1 | 4.5 | 11 | 3539 | 4 | 4 | -15 | 16
CCC(=O)Nc1ccc2nc(C3CC3)n(Cc3ccccc3)c(=O)c2c1 | 3.8 | 7 | 4860 | . | . | -92 | -6
O=c1[nH]c(N2CCOCC2)nc2ccccc12 | 3.1 | 9 | 3805 | 3 | -5 | -8 | -5
COc1cc(NC(=O)c2ccc([N+](=O)[O-])o2)ccc1NC(=O)c1cccs1 | 100* | 100* | 11186 | 0 | -5 | -20 | -16
CC(C)CNC(=O)CN(C1CCCCC1)S(C)(=O)=O | 4.1 | -1 | 4502 | 4 | 0 | -13 | -3
COC(=O)NNC(=O)COc1cc(C)c(Br)cc1C(C)C | 3.3 | 13 | 2382 | 6 | 4 | -7 | -9
CN1C2CCC1/C(=C\c1ccc(F)cc1)C(=O)/C2=C/c1ccc(F)cc1 | 3.5 | 11 | 6967 | 10 | 9 | -21 | 4
Cc1ccc(Oc2ccc(Cl)cc2N)cc1 | -1.7 | 9 | 4602 | 4 | 1 | -37 | 8
O=C(O)c1cccc2c1-c1ccc(Cl)cc1C2 | 10 | -6 | 3852 | 11 | 8 | -2 | .
O=C(COC(=O)CSc1ccc([N+](=O)[O-])cc1)NCC1CCCO1 (stereo not given) | 3.1 | 10 | 5913 | 3 | -2 | -18 | 5
CCOc1ccc(/C=N/NC(=O)Cn2ccnc2C)cc1 | . | . | 4120 | . | . | 5 | -9
O=C(NCc1ccc2c(c1)OCO2)c1ccc(CS(=O)(=O)Cc2cccc(Cl)c2)o1 | 4.4 | 2 | 2513 | 8 | 5 | 15 | -18
Cc1cc(C=C2C(=O)N(C)C(=S)N(C)C2=O)c(C)n1-c1cccnc1 | 0.1 | 0 | 2319 | -3 | -6 | -18 | -1
CCOC(=O)Cc1csc(NC(=O)c2ccc(Br)cc2)n1 | 1.7 | 7 | 3339 | -2 | -2 | -24 | 2
COc1ccc(C(=O)C2CCCN(S(=O)(=O)c3ccc(C(C)=O)cc3)C2)c(C)c1 (stereo not given) | 2.3 | 5 | 5411 | 6 | 5 | -10 | 6
CC(C)c1ccc(C=NNC(=O)c2cc(-c3cccc([N+](=O)[O-])c3)n[nH]2)cc1 | -5.4 | -21 | . | 16 | 2 | . | .
Cc1[nH]n(-c2ccccc2)c(=O)c1C=Nc1ccc(S(=O)(=O)NC(N)=O)cc1 | 0.1 | 2 | 3701 | . | . | -10 | 10
COc1ccc(S(=O)(=O)NC(CC(=O)NCc2ccco2)c2ccco2)cc1 (stereo not given) | -2.1 | -3 | 4831 | . | . | -39 | 0
Cc1cccc(/C=C/c2onc(C)c2S(=O)(=O)N2CCC(C(=O)NC(C)(C)C)CC2)c1 | 0.9 | 8 | 5931 | . | . | -11 | -9
Cc1cc(NC(=O)CSc2ccccn2)no1 | 1.6 | 3 | 4466 | -7 | 3 | -24 | 4
CCOC(=O)c1cn[nH]c1NC(=S)Nc1ccccc1 | -1.5 | -8 | 3826 | 2 | 11 | -99 | -4
C/C=C1\NC(=O)[C@@H](NC(=O)[C@H](CCc2ccc(O)cc2)NC(=O)[C@H](C)NC(=O)[C@H](O)CO)[C@@H](C)OC(=O)[C@H](C(C)C)NC(=O)[C@H](Cc2ccc(O)cc2)N(C)C(=O)[C@H](Cc2ccccc2)N2C(=O)C(CC[C@H]2O)NC1=O (stereo not given in full) | 3.5 | 7 | 2902 | . | . | -23 | .
CCOC(=O)c1ccc(NC(=O)c2nc[nH]c2C(=O)NCC(=O)OC(C)(C)C)cc1 | -5.3 | 2 | 3972 | 5 | 1 | -12 | 12
COC(=O)CCC(=O)OC1(C)C(=O)C2=CN(CCc3c[nH]c4ccccc34)C(c3ccc(OC)cc3)=CC2=C(Br)C1=O (stereo not given) | . | . | 3201 | . | . | -16 | 1
COC(=O)c1ccc(C2C(Oc3ccc(OC)cc3)C(=O)N2CCc2ccc(F)cc2)cc1 (stereo not given) | 13 | 3 | 3684 | -6 | 1 | -10 | 2
COc1ccc(CNc2ccccc2)cc1Br | 0.4 | 15 | 4687 | 4 | 4 | -30 | 5
COc1cc(N2CCOCC2)ccc1/C=C1\C(=O)NC(=O)N(C2CCCCC2)C1=O | 4.1 | 2 | 2282 | 5 | 3 | -9 | 0
CCc1cc(C(=O)NNC(=S)Nc2cccc(C)c2)cs1 | -2.3 | -9 | 21356* | 8 | 13 | -54 | -2
CC(C)(C)c1ccc(C(=O)NNC(=O)CCc2ccccc2)cc1 | 2.8 | 4 | 6428 | 13 | 3 | . | 4
CCn1c(CCCOc2ccc(Cl)cc2Cl)nnc1SCC(=O)Nc1cccc(F)c1 | 2.9 | -4 | 8101 | -6 | 1 | 14 | 18
Cc1ccc(-n2c(=S)[nH]c3sc4c(c3c2=O)CCC4)cc1 | 5.6 | -1 | 4860 | 9 | 4 | -6 | -7
COc1cc2cc(C(C)(C)O)oc(=O)c2cc1OC | 3.4 | -3 | 3571 | -7 | 3 | -13 | .

Given tab-delimited: part of the list above.
SMILES	RN4220 kill	Sa ugtP lethal	Autofluor counter	Mtb hypoxia rep	Mtb hypoxia rep growth	PrP UTR inh	BJeLR lethal
CCOC(=O)c1cn[nH]c1NC(=S)Nc1ccccc1	-1.5	-8	3826	2	11	-99	-4
C/C=C1\NC(=O)[C@@H](NC(=O)[C@H](CCc2ccc(O)cc2)NC(=O)[C@H](C)NC(=O)[C@H](O)CO)[C@@H](C)OC(=O)[C@H](C(C)C)NC(=O)[C@H](Cc2ccc(O)cc2)N(C)C(=O)[C@H](Cc2ccccc2)N2C(=O)C(CC[C@H]2O)NC1=O (stereo not given in full)	3.5	7	2902	.	.	-23	.
CCOC(=O)c1ccc(NC(=O)c2nc[nH]c2C(=O)NCC(=O)OC(C)(C)C)cc1	-5.3	2	3972	5	1	-12	12

Compound activity from PubChem.
